ID4 SMM: ID4 (human) binding. P47928. small molecule microarray, Flag-ID4 binding, fluorescence F/B. calls only. hit rate 1.2% among 31,000. AID 624137;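 active = spot signal over background at p below 0.07 in all four prints; compounds were printed on slides so no solution concentration is given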;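 also: a binder raises fluorescence above local background on the spot; about 2 pmol printed per array spot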
Target sequence (P47928 whole entry, looked up): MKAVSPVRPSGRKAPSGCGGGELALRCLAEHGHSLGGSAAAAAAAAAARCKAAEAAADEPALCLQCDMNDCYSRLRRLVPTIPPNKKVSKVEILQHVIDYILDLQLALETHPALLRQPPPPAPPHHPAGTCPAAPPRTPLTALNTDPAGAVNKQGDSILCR
Calls only; i = inactive. The list is partial (hit frequency here may not be typical).

Compound | ID4 SMM
C[C@H](CO)N1C[C@H](C)[C@H](CN(C)S(=O)(=O)c2ccc(F)cc2)Oc2cc(C#Cc3ccncc3)ccc2S1(=O)=O | i
C=C1C(=O)O[C@H]2C1CCC(C)=C1C(=O)C=C(C)[C@@H]12 (some centres undefined) | i
COC(=O)c1ccc(NC(=O)CN(c2ccc(Cl)cc2C)S(C)(=O)=O)cc1 | i
CCCCN(C)S(=O)(=O)c1ccc(C)c(-c2nnc3c4ccccc4c(C)nn23)c1 | i
C[C@@H]1CN([C@H](C)CO)S(=O)(=O)c2ccc(C#CCN(C)C)cc2O[C@H]1CN(C)Cc1ccccc1 | i
O=C(C[C@H]1CC[C@@H](NC(=O)Cc2ccccn2)[C@H](CO)O1)NCCc1ccccc1 | i
CC(=O)N(C)C[C@@H]1Oc2cc(C#CC(C)(C)O)ccc2S(=O)(=O)N([C@H](C)CO)C[C@@H]1C | i
CS(=O)(=O)N(CC(=O)Nc1ccc2c(c1)OCCO2)c1cc(Cl)c(Cl)cc1Cl | i
O=C(C[C@H]1C=C[C@@H](NC(=O)Cc2ccccn2)[C@@H](CO)O1)NCCCN1CCOCC1 | i
C[C@@H]1CN([C@H](C)CO)C(=O)c2cc(/C=C/c3ccccc3)cnc2O[C@@H]1CN(C)C | i
Cc1ccc(-c2cnc3c(c2)C(=O)N([C@H](C)CO)C[C@@H](C)[C@H](CN(C)Cc2ccccc2F)O3)cc1 | i
Cn1nnnc1SCC(=O)Nc1ccc(C(=O)O)cc1 | i
C[C@H]1CN([C@@H](C)CO)S(=O)(=O)c2ccc(-c3ccc(C#N)cc3)cc2O[C@@H]1CN(C)C | i
COCC#Cc1ccc2c(c1)O[C@H](CN(C)C)[C@@H](C)CN([C@@H](C)CO)S2(=O)=O | i
COc1ccc2nc(SCC(=O)Nc3cccc([N+](=O)[O-])c3)[nH]c2c1 | i
CCC(=O)N(C)C[C@@H]1Oc2ncc(Br)cc2C(=O)N([C@@H](C)CO)C[C@@H]1C | i
CC(=O)c1cccc(NC(=S)NCc2ccco2)c1 | i
CC(C)NC(=O)N(C)C[C@@H]1Oc2ncc(C#CC3CC3)cc2C(=O)N([C@H](C)CO)C[C@@H]1C | i
COc1ccc(NC(=O)CSc2n[nH]c(-c3ccco3)n2)cc1 | i
Cc1ccc(NC(=O)Cn2nc(-c3cccc([N+](=O)[O-])c3)c3ccccc3c2=O)c(C)c1 | i
CCn1c(SCC(=O)Nc2cccc(C(F)(F)F)c2)nnc1-c1ccco1 | i
CC(=O)CCc1c(C)[nH]c2ccc(C)cc2c1=O | i
COc1ccccc1C(=O)Nc1ccc2c(c1)OC[C@@H](C)N(C)C[C@@H](C)[C@H](OC)CN(C)C2=O | i
Cc1c(O)cc(O)c2c1OC(c1ccccc1)CC2=O (centres undefined) | i
N#Cc1c(NC(=O)CSc2ncccn2)sc2c1CCCC2 | i
Cc1nc2sc3c(c2c2nnc(SCC(=O)Nc4ccc(Br)cc4)n12)CCCC3 | i
COC(=O)[C@]1(Cc2ccccc2)N=C(c2ccc(OCCCO)cc2)O[C@@H]1c1ccccc1CN=[N+]=[N-] | i
C[C@H](CO)N1C[C@H](C)[C@@H](CN(C)Cc2ccc(F)cc2)Oc2ncc(Br)cc2C1=O | i
Cc1cc(C)c(NC(=O)CSc2nc(C)cc(=O)[nH]2)c([N+](=O)[O-])c1 | i
CN(C)C(=O)C[C@@H]1CC[C@H](NC(=O)Nc2cccc(F)c2)[C@H](CO)O1 | i
C[C@H](NC(=O)C[C@@H]1CC[C@H](NC(=O)CN2CCOCC2)[C@H](CO)O1)c1ccccc1 | i
C[C@@H]1CN([C@@H](C)CO)C(=O)c2cc(Br)cnc2O[C@@H]1CN(C)C(=O)C1CC1 | i
C[C@H](CO)N1C[C@H](C)[C@H](CN(C)Cc2ccccc2)Oc2cc(-c3ccccc3)ccc2S1(=O)=O | i
O=C(CCn1nc(-c2ccccc2)c2ccccc2c1=O)Nc1cccnc1 | i
CS(=O)(=O)N(CC(=O)Nc1c(F)cccc1F)c1cccc(Br)c1 | i
COc1cccc2cc(-c3nnc(SCC(=O)Nc4cccc(Br)c4)n3C)oc12 | i
Cc1c(N(C)C(=O)C2CCCN2S(=O)(=O)c2ccccc2)c(=O)n(-c2ccccc2)n1C (centres undefined) | i
Cc1nnc(SCC(=O)Nc2ccccc2C(F)(F)F)s1 | i
COc1ccc(-c2cnc3c(c2)C(=O)N([C@@H](C)CO)C[C@@H](C)[C@@H](CN(C)Cc2ccccc2)O3)cc1 | i
Cc1ccc2c(c1)C(=O)C1(O)CCN(c3ccccc3)C1=N2 (centres undefined) | i
CCc1ccc(NC(=O)Cn2c(-c3nonc3N)nc3ccccc32)cc1 | i
CN(C)C(=O)C[C@@H]1C[C@@H]2c3cc(NC(=O)Nc4ccc(F)cc4)ccc3O[C@@H]2[C@@H](CO)O1 | i
C[C@@H]1CN([C@H](C)CO)C(=O)c2cc(C3=CCCC3)cnc2O[C@H]1CN(C)Cc1cccnc1 | i
Cc1nc(NCC2CCCO2)c2c3c(sc2n1)CCC3 (centres undefined) | i
O=C(C[C@H]1CC[C@@H](NC(=O)c2cnccn2)[C@@H](CO)O1)NCc1ccccc1F | i
C[C@@H]1CN([C@@H](C)CO)S(=O)(=O)c2ccc(/C=C/c3ccccc3)cc2O[C@@H]1CN(C)C(=O)CN1CCOCC1 | i
CCCC#Cc1cnc2c(c1)C(=O)N([C@@H](C)CO)C[C@@H](C)[C@H](CN(C)C(=O)C1CCOCC1)O2 | i
CCc1cc2c(=O)c(-c3nc(C)cs3)c(CCCC(=O)O)oc2cc1O | i

Going on with the list.
molecule	ID4 SMM
CC(C)(C)OC(=O)CC[C@@]12N=C(c3ccc(OCCCO)cc3)O[C@@H]1c1ccccc1CN(CCS(=O)(=O)c1ccccc1)C2=O	i
O=C(NCC[C@@H]1CC[C@H](NC(=O)C2CCCCC2)[C@@H](CO)O1)c1cc(Cl)cc(Cl)c1	i
O=C(Nc1ccc2c(c1)OCO2)N[C@@H]1C=C[C@H](CC(=O)N2CCN(c3ccccc3)CC2)O[C@H]1CO	i
Cn1cnc(S(=O)(=O)N[C@@H]2CC[C@@H](CC(=O)N3CCN(c4ccccc4)CC3)O[C@H]2CO)c1	i
COc1ccc(OC)c(N(CC(=O)N2CCC(C)CC2)S(C)(=O)=O)c1	i
Cc1cccc(NC(=O)CSc2nc3sc(C)c(C)c3c(=O)n2C)c1C	i
COC(=O)C[C@H]1C=C[C@@H](NS(=O)(=O)c2ccccc2F)[C@@H](CO)O1	i
CCCN(C)C[C@H]1Oc2ncc(-c3cccc(C#N)c3)cc2C(=O)N([C@H](C)CO)C[C@H]1C	i
O=C(CSc1nnc(-c2cccc(Br)c2)n1-c1ccccc1)c1ccc(F)cc1	i
O=C(CSc1nc2ccccc2o1)N1N=CCC1c1ccccc1 (centres undefined)	i
COCC#Cc1cnc2c(c1)C(=O)N([C@H](C)CO)C[C@@H](C)[C@H](CN(C)C(=O)CCN1CCCCC1)O2	i
Cc1ccc(S(=O)(=O)N(C)CC(=O)Nc2ccc(Cl)cc2C(F)(F)F)cc1	i
C[C@@H]1CN([C@@H](C)CO)S(=O)(=O)c2ccc(-c3cccc(C#N)c3)cc2O[C@H]1CN(C)C	i
CC(C)CC#Cc1cnc2c(c1)C(=O)N([C@H](C)CO)C[C@@H](C)[C@H](CN(C)Cc1ccccn1)O2	i
O=C(C[C@H]1C[C@H]2c3cc(NC(=O)Nc4ccccc4F)ccc3O[C@H]2[C@@H](CO)O1)NCc1ccc2c(c1)OCO2	i
C[C@H]1CN([C@@H](C)CO)C(=O)c2cc(-c3ccc(F)cc3)cnc2O[C@H]1CN(C)CC1CCCC1	i
COc1ccc(NC(=S)N2CCNC(=O)C2CC(=O)Nc2ccc(C)cc2)cc1 (centres undefined)	i
CS(=O)(=O)N(CC(=O)Nc1ccc(C(F)(F)F)cc1)c1ccc(F)cc1	i
CCCN(C)C[C@@H]1Oc2ncc(C#CC3CC3)cc2C(=O)N([C@H](C)CO)C[C@H]1C	i
CC(C)CC#Cc1cnc2c(c1)C(=O)N([C@H](C)CO)C[C@@H](C)[C@H](CN(C)C(=O)Cc1ccccc1)O2	i
Cn1c(=O)c2c(nc(NCCN3CCOCC3)n2Cc2ccc(Cl)cc2Cl)n(C)c1=O	i
NC(=O)c1c(NC(=O)COc2ccc(Cl)cc2Cl)sc2c1CCCC2	i
CN(C)c1nc(N)nc(CSc2nnnn2-c2cccc3ccccc23)n1	i
O=C(N[C@H]1CC[C@@H](CC(=O)N2CCN(c3ccccc3)CC2)O[C@H]1CO)c1ccccc1	i
COc1cc(Cl)c(C)cc1NC(=O)CC1Sc2ccccc2NC1=O (centres undefined)	i
CNC(=O)CN(c1cccc(Cl)c1Cl)S(=O)(=O)c1ccc(C)cc1	i
CC(Oc1cccc(NC(=O)c2cccc([N+](=O)[O-])c2)c1)C(=O)c1cccc(Cl)c1 (centres undefined)	i
COCC#Cc1ccc2c(c1)O[C@H](CN(C)C)[C@H](C)CN([C@H](C)CO)S2(=O)=O	i
O=C(O)c1ccc(NS(=O)(=O)c2cccc(S(=O)(=O)c3ccc(Cl)c(Cl)c3)c2)cc1	i
COC(=O)c1ccccc1NC(=O)CN(C)S(=O)(=O)c1c(C)cc(C)cc1C	i
COc1cccc(-c2cnc3c(c2)C(=O)N([C@H](C)CO)C[C@@H](C)[C@H](CN(C)Cc2ccncc2)O3)c1	i
O=C(C[C@H]1CC[C@@H](NC(=O)CC2CC2)[C@@H](CO)O1)NCc1ccc(-c2ccccc2)cc1	i
CCCC#Cc1cnc2c(c1)C(=O)N([C@@H](C)CO)C[C@@H](C)[C@H](CN(C)Cc1ccccc1F)O2	i
CNC(=O)CN(c1ccc2c(c1)OCCO2)S(C)(=O)=O	i
O=C(CCCN1C(=O)c2ccccc2C1=O)Nc1ccc(Cl)c(Cl)c1	i
COc1cccc(NC(=O)CN(C)S(=O)(=O)c2ccc(OC)c(C)c2)c1	i
CS(=O)(=O)N(CC(=O)Nc1ccc2ccccc2c1)c1ccc(Cl)cc1Cl	i
O=C1Cn2nnc(C(=O)c3ccccc3)c2C2(CCCCC2)O1	i
O=C1NCCCC1C(=O)N1CCCCC1 (centres undefined)	i
COC(=O)c1ccccc1NC(=O)CSc1nnnn1C	i
C[C@H]1CN([C@@H](C)CO)S(=O)(=O)c2ccc(Br)cc2O[C@H]1CN(C)CC1CCOCC1	i
Nc1cc(=O)[nH]c(SCC(=O)Nc2ccc(F)cc2)n1	i
C[C@@H]1CN([C@H](C)CO)C(=O)c2cc(C#CC(C)(C)O)cnc2O[C@H]1CN(C)C(=O)CC1CC1	i
COc1ccc(CCNS(=O)(=O)c2cc(C)ccc2OC)cc1	i
COC(=O)c1ccc(Cl)c(NC(=O)COc2ccc(OC)cc2)c1	i
CC(=O)N(C)C[C@@H]1OCc2ccccc2-c2ccccc2C(=O)N([C@H](C)CO)C[C@@H]1C	i
OCCCn1c(-c2ccccc2)cn2c3ccccc3nc12	i
COc1ccccc1-c1ccc2c(c1)O[C@H](CN(C)Cc1ccc3c(c1)OCO3)[C@H](C)CN([C@@H](C)CO)S2(=O)=O	i

Next part; the last five above are carried over.
molecule	ID4 SMM
COc1ccc(CCNS(=O)(=O)c2cc(C)ccc2OC)cc1	i
COC(=O)c1ccc(Cl)c(NC(=O)COc2ccc(OC)cc2)c1	i
CC(=O)N(C)C[C@@H]1OCc2ccccc2-c2ccccc2C(=O)N([C@H](C)CO)C[C@@H]1C	i
OCCCn1c(-c2ccccc2)cn2c3ccccc3nc12	i
COc1ccccc1-c1ccc2c(c1)O[C@H](CN(C)Cc1ccc3c(c1)OCO3)[C@H](C)CN([C@@H](C)CO)S2(=O)=O	i
COc1cc(OC)cc(C(=O)NCc2nc(-c3ccccc3)no2)c1	i
CCCn1c2ccccc2c2nnc(SCC(=O)Nc3cccc4ccccc34)nc21	i
C[C@H](NC(=O)C[C@@H]1C=C[C@@H](NC(=O)Cc2ccccn2)[C@H](CO)O1)c1ccccc1	i
C[C@@H]1CN([C@@H](C)CO)C(=O)c2cc(-c3ccc(C#N)cc3)cnc2O[C@H]1CN(C)CC1CCCC1	i
COc1ccc(OCC(=O)Nc2ccc3oc(-c4cccc(Br)c4)nc3c2)cc1	i
O=C(C[C@H]1CC[C@@H](NC(=O)c2ccc(F)cc2)[C@H](CO)O1)NCCc1ccccc1	i
Cc1nc(Oc2ccc(Cl)cc2)c(C(=O)O)c(C)c1Cl	i
COc1ccccc1NC(=O)CN(c1ccc(Br)c(C)c1)S(C)(=O)=O	i
CCCN(C)C[C@@H]1Oc2ncc(-c3cccnc3)cc2C(=O)N([C@H](C)CO)C[C@@H]1C	i
COc1cc(-c2nnn(CC(=O)O)n2)cc(OC)c1OC	i
COc1cccc(-c2cnc3c(c2)C(=O)N([C@H](C)CO)C[C@@H](C)[C@@H](CN(C)Cc2ccccc2)O3)c1	i
C[C@@H]1CN([C@@H](C)CO)C(=O)c2cc(-c3ccccc3F)cnc2O[C@H]1CN(C)Cc1ccc(F)cc1	i
O=C(CCN1CCCCC1)N[C@@H]1C=C[C@H](CC(=O)N2CCC(Cc3ccccc3)CC2)O[C@H]1CO	i
CS(=O)(=O)N(CC(=O)Nc1ccccc1C(F)(F)F)c1ccc(Cl)c(C(F)(F)F)c1	i

Reformatted: results already given.
> O=C(O)c1ccc(NS(=O)(=O)c2cccc(S(=O)(=O)c3ccc(Cl)c(Cl)c3)c2)cc1
  ID4 SMM = i
> CC(C)CC#Cc1cnc2c(c1)C(=O)N([C@H](C)CO)C[C@@H](C)[C@H](CN(C)Cc1ccccn1)O2
  ID4 SMM = i

Assay outcomes from PubChem.
